MgrA DNA FP = S. aureus MgrA-DNA binding modulation | 84,000 tested, 0.13% active | AID 602314 | inhibition, %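 (about 10 µg/mL by stock and volumes)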 | fluorescence polarization;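 active = above 50% in either of two replicates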;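 also: 0% = protein plus DNA without compound and 100% = DNA alone without protein; higher means less MgrA bound to DNA so lower polarization; one replicate is shown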
Sa helicase inh = blocks Staphylococcus aureus DNA helicase. purified S. aureus helicase, fluorescence unwinding assay; about half of the hits fall short of the stated cut. inhibition, %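 (tested at about 80 µM)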. 120,000 tested, 0.05% active. AID 485395;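 active = both duplicates at 50% or more, or one of them with a favoured structure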;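 also: 0% = mean of negative control wells and 100% = mean of positive control wells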
An asterisk follows results filed as active; nt = not tested or not shown; & = joins results of further samples.

smiles,MgrA DNA FP,Sa helicase inh
CN1CCC(=NNC(=O)c2ccc3c(c2)NC(=O)C(C)(C)O3)CC1,-3.0,15
Cc1cccc(NC(=O)CCCN2C(=O)CCC2=O)c1C,0.6,5
Cc1ccn(CCC(=O)O)n1,nt,0
O=C(CN1C2=NCCN2c2ccccc21)c1ccco1,-0.5,7
CC(Oc1cccc(Cl)c1)C(=O)N(C)Cc1nc(-c2ccccc2)no1 (stereo unspecified),0.4,-3
O=C(O)C1CCN(C(=O)c2csc(-c3ccc4c(c3)CCO4)n2)CC1,-2.1,nt
CCOC(=O)c1ccccc1NC(=O)Cn1c(=O)n(-c2cc(C)cc(C)c2)c(=O)c2sccc21,1.1,-3
O=C(CSc1nnc(-c2cccs2)o1)N1c2ccccc2OCC1c1ccccc1 (stereo unspecified),nt,2
COc1ccc(C2CC(=O)N3C(=C2C#N)SCC3(O)c2ccccc2)cc1 (stereo unspecified),nt,9
CCC1(C)Cc2ccccc2-c2nc(-c3ccccc3)n(CCO)c(=O)c21 (stereo unspecified),nt,8
O=C1c2ccccc2-c2c(-c3ccccc3)sc(=O)n21,nt,3
Cc1cc(NC(=O)/C(C#N)=C/c2ccc(Cl)cc2)n(-c2ccccc2)n1,nt,-8
Cc1nn(C(C)(C)C)c(OC(=O)c2cccs2)c1Sc1ccccc1,nt,-9
Cc1c(C(=O)NC2CCCCC2)c(C)n2cnn(CC(=O)NCCCN3CC(C)CC(C)C3)c(=O)c12 (stereo unspecified),1.5,7
O=C(CSc1nnnn1-c1ccc2c(c1)OCCO2)c1ccc2c(c1)OCCO2,-2.4,4
CC(C)NC(=O)N(Cc1ccccc1)Cc1cccs1,-0.8,nt
O=C(NC(=O)c1ccccc1O)c1ccc(F)cc1,nt,-3
Cc1cc(C)c2c(c1)C(=O)CCC2,nt,13
CC1CCCN(S(=O)(=O)c2ccc(NC(=O)CSc3nc4ccccc4o3)cc2)C1 (stereo unspecified),-2.0,4
N#CC(CC(=O)c1cccs1)c1ccccc1 (stereo unspecified),0.4,nt

(more compounds)
smiles,MgrA DNA FP,Sa helicase inh
Cn1cc(C(F)(F)F)ccc1=S,2.0,-5
COc1ccc(C2C3=C(Nc4ncnn42)c2ccccc2CCC3)cc1 (stereo unspecified),nt,-9
C1CCC(NC2=NCCC2)CC1,-1.2,-13
CCc1ccc(NC2c3ccccc3C(=O)N2c2ccccc2C)cc1 (stereo unspecified),3.2,9
Nc1nc(SCc2nc(-c3ccccc3)no2)n[nH]1,-2.5,nt
COc1cccc2sc(NC(=O)c3ccccc3NS(=O)(=O)c3ccc(C)cc3)nc12,-1.9,nt
COc1cc2c(cc1OC)C(=NC(C)C(=O)O)NC(C)(C)C2 (stereo unspecified),1.4,1
COC(=O)c1oc2c(c1C)C(=O)CCC2,nt,8
COc1ccccc1OCC(O)CN1CCOCC1 (stereo unspecified),1.3,-14
COc1ccccc1C(=O)OCC(=O)N1CCCCCC1,-2.8,3
O=C(c1ccccc1)N(c1ccc2oc(=O)sc2c1)S(=O)(=O)c1ccccc1,-0.5,-2
Cc1nc2sccn2c1C(=O)N/N=C\c1ccc(CNS(=O)(=O)c2ccc(Cl)cc2)o1,nt,-30
CCC(=O)Nc1cc(-c2nn(C)c(=O)c3ccccc23)ccc1N1CCCCC1,3.7,11
CC(=O)N1CCN(CC(=O)NCCc2ccc(Cl)cc2)CC1,nt,7
O=C(O)Cc1ccc(NC(=S)Nc2ccc3c(c2)OCO3)cc1,4.6,7
Clc1ccc(-c2nn3c(-c4ccc(Cl)cc4)nnc3s2)cc1,-0.2,nt
Cn1c(C(C#N)/C(=N\S(=O)(=O)c2ccccc2)c2ccccc2)nc2ccccc21 (stereo unspecified),nt,8
CC(C)c1ccc(NC(=O)CSc2cccs2)cc1,-3.0,nt
Cc1sc(N)c(C#N)c1-c1ccc(Cl)cc1Cl,-3.6,12
COC(=O)c1c(NC(=O)c2cccs2)sc2c1C(C(=O)OC)CC2 (stereo unspecified),8.5,14

Full records, looked up by structure:
Entry for COc1ccccc1OCC(O)CN1CCOCC1 (stereo unspecified) = MgrA DNA FP = 1.3; Sa helicase inh = -14
Entry for Nc1nc(SCc2nc(-c3ccccc3)no2)n[nH]1 = MgrA DNA FP = -2.5; Sa helicase inh = nt
Entry for O=C(O)Cc1ccc(NC(=S)Nc2ccc3c(c2)OCO3)cc1 = MgrA DNA FP = 4.6; Sa helicase inh = 7

(further entries)
smiles,MgrA DNA FP,Sa helicase inh
COc1ccc(CN(C)C(=O)c2cccc(N(C)C)c2)cc1,nt,-11
CCOc1ccc(Br)cc1S(=O)(=O)n1cccc1,0.9,1
c1ccc(CNCc2cccn2-c2nnc(N3CCCCC3)s2)cc1,nt,18
COc1ccc(NC(=O)c2ccc(COc3cccc(C)c3)o2)cc1,1.1,-13
COc1ccccc1NS(=O)(=O)c1cccc(Cl)c1,nt,-8
O=C(c1cc2c(=O)oc3ccccc3c2s1)N1CCN(c2cccc(C(F)(F)F)c2)CC1,-1.1,6
CN(C(=O)c1noc2c1CCCC2)c1ccccc1,nt,6
CC(C)(C)c1ccc(Oc2ncccc2NC(=O)c2ccco2)cc1,-0.9,nt
O=C(COc1ccc2c3c(c(=O)oc2c1)CCC3)c1ccc(N2CCCC2)cc1,1.9,25
CNC(=O)[C@H]1O[C@@H](n2cnc3c(NCc4cccc(I)c4)ncnc32)C(O)[C@H]1O (stereo partly specified),-1.0,nt
Cc1nn(C(=O)CCC(=O)N2CCc3ccccc32)c2ccccc12,nt,20
CCCn1c(C(C)NC(C)=O)nc2ccccc21 (stereo unspecified),nt,-20
Cc1ccc2ncc(C(=O)N3c4ccccc4CC3C)c(=O)n2c1 (stereo unspecified),nt,3
COc1ccc(-c2nn(CCC#N)cc2C#N)cc1,4.8,10
Cc1[nH]c2ccc(C(=O)OCC(=O)c3cc4ccccc4o3)cc2c1C,nt,-8
CCSc1nnc(-c2cc(Br)ccc2N)c(=O)[nH]1,nt,11
COC(=O)C1=C(C)NC(=O)C1(Nc1nc2ccccc2s1)C(F)(F)F (stereo unspecified),nt,23
CCOC(=O)CSc1nnc(-c2ccncc2)n1-c1ccccc1,-0.6,nt
COc1ccc(-c2cc(C(=O)N(C)c3ccccc3)no2)cc1,nt,40
Cc1nnsc1C(=O)NC1CCCCNC1=O (stereo unspecified),-0.4,nt

Grouped by structure, the entries above with a CF3 group.
smiles,MgrA DNA FP,Sa helicase inh
Cn1cc(C(F)(F)F)ccc1=S,2.0,-5
O=C(c1cc2c(=O)oc3ccccc3c2s1)N1CCN(c2cccc(C(F)(F)F)c2)CC1,-1.1,6
COC(=O)C1=C(C)NC(=O)C1(Nc1nc2ccccc2s1)C(F)(F)F (stereo unspecified),nt,23

(listing goes on)
smiles,MgrA DNA FP,Sa helicase inh
CSc1nc2nc3c(cc2c(=O)n1-c1ccccc1C)COC(C)(C)C3,nt,1
COc1nccnc1NS(=O)(=O)c1ccc(NC(=O)c2sc3ccccc3c2Cl)cc1,1.8,nt
CCOc1ccc(C(NC(=O)c2ccco2)NC(=O)c2ccco2)cc1OC,0.7,-3
COc1ccsc1C(=O)O,-3.3,nt
CN(C(=O)c1ccc2c(Cl)c3c(nc2c1)CCC3)c1ccccc1Cl,0.9,16
Cc1nc2ccccc2c(C)c1CC(=O)N1CCN(c2ccc(O)cc2)CC1,nt,-11
Cc1ccccc1C(=O)NN1C(=O)/C(=C2/C(=O)N(C)c3ccc(Br)cc32)SC1=S,-1.4,nt
CCn1c(CSc2ncccn2)nc2cc(C(=O)O)ccc21,nt,-25
Cc1sc2ncnc(N(C)C3CCCCC3)c2c1C,nt,-3
CC(=O)N1CCN(C(=O)c2cc(C)nc3ccccc23)CC1,nt,14
CC(C)(C)OC(=O)N1CC=C2C(C#N)=C(N)C(C#N)(C#N)C(c3ccc4c(c3)OCO4)C2C1 (stereo unspecified),-2.6,-1
COc1ccc(OCCBr)cc1,-2.3,8
Cc1ccccc1N1CC(C(=O)Nc2ccc(S(N)(=O)=O)cc2)CC1=O (stereo unspecified),0.1,16
COc1ccc(N(C(=O)c2ccccc2OC(C)=O)C(C)C2CC2)cc1 (stereo unspecified),nt,-3
Cc1ccccc1NC(=O)Nc1ccc(-n2ncnn2)cc1,1.6,7
CC(c1ccccc1)N1CCn2c(nc3cc(NC(=O)c4cccc(Br)c4)ccc32)C1 (stereo unspecified),-0.8,2
O=C(CCN1C(=O)C2C3C=CC(C3)C2C1=O)N1CCCCC1 (stereo unspecified),-0.1,-1
COc1ccc(/C=N/S(=O)(=O)c2ccccc2)cc1OC,0.7,-3
CCOC(=O)c1ccc(SC)cc1OC,1.0,-2
Nc1ccc(-c2cn3ccccc3n2)cc1,-1.8,-5

(listing goes on)
smiles,MgrA DNA FP,Sa helicase inh
CCc1ccc(C(=O)/C=C/Nc2ccc(C)cc2O)cc1,3.2,0
COc1ccc(CNC(=O)NC(C)(C)C)cc1,nt,-8
CCN(CC)CCOC(=O)C(c1ccccc1)C1CCCCC1 (stereo unspecified),-1.6&-0.5,nt
FC(F)(F)c1cccc(-n2c(-c3ccco3)n[nH]c2=S)c1,nt,-33
CC(C)CC1=NC(C(F)(F)F)(C(F)(F)F)N=C(N2CCCCC2)O1,-0.6,-2
O=[N+]([O-])c1cc2c3c(c1)C1C=CCC1C(c1ccccc1)N3CC1CC=CC21 (stereo unspecified),0.8,nt
CC1CCN(C(=O)COC(=O)CCN2C(=O)S/C(=C\c3cccs3)C2=O)CC1,nt,15
C=CCNc1c2c(nc3cc(-c4cc(OC)cc(OC)c4)nn13)CCC2,-3.3,-2
Cc1cccc(OCCCC(=O)N2CCCCCC2)c1C,-2.1,10
C=CCSc1nnc(-c2ccc(C)cc2)o1,-0.2,6
Cn1cc2c(n1)-c1cc(Cl)ccc1SC2,nt,-36
O=C(NC=C(Cl)Cl)c1ccccc1,nt,22
CCN(CC)S(=O)(=O)c1ccc(NC2c3ccccc3C(=O)N2Cc2ccccc2)cc1 (stereo unspecified),0.4,18
CC(=O)Nc1ccc(I)cc1C,-0.3,nt
CSc1sc(C(=O)Nc2cccc(Cl)c2)c(-c2cccs2)c1C#N,0.1,nt
O=S(=O)(c1cccc2nsnc12)N1CCCc2ccccc21,-2.5,nt
O=C(OCCOc1ccccc1)c1cc2c(s1)CCC2,nt,-1
Cc1ccccc1NS(=O)(=O)c1cc(-c2onc(C)c2C)ccc1C,nt,6
Cc1cc(Cl)ccc1OCCCC(N)=O,-2.9,-1
CNC(=O)C1OC(C)(C(C)(C)C)OC1C(=O)NC (stereo unspecified),-1.0,5

Following part
smiles,MgrA DNA FP,Sa helicase inh
CCN(CC)c1ccc(N=Cc2ccc(O)cc2)cc1,1.8,6
CCCNC(=O)CSc1nc(-c2ccccc2)cc(C(F)(F)F)n1,0.4,-3
O=S(=O)(c1ccc2nc3c(nc2c1)-c1cccc2cccc-3c12)N1CCOCC1,nt,8
COc1cc(/C=N/n2cc(-c3ccccc3)[nH]c2=S)cc(OC)c1OC(C)=O,nt,-1
O=C(O)CC(NC(=O)Cc1cccc2ccccc12)C(=O)O (stereo unspecified),-1.8,nt
Cc1cccc(C(C)C)c1NC(=O)COC(=O)Cc1ccsc1,0.0,-16
O=C(CCS(=O)(=O)c1ccc(Cl)cc1)OCc1ccccc1,-3.0,-15
COC(=O)c1ccc(CSc2nnc(SCc3ccc(C(=O)OC)o3)s2)o1,nt,2
COc1ccc2nc(NC(=O)c3ccccc3C)sc2c1,-1.6,5
COc1ccc(C(C#N)N2N=C(C)CC2c2ccccc2)cc1 (stereo unspecified),-0.4,-3
O=C(CSc1ccccn1)NC(=O)c1ccccc1,3.1,-3
CC1CCCCN1C(=O)C1CCCN(S(=O)(=O)c2ccccc2)C1 (stereo unspecified),-1.8,15
CC(C)(C)c1ccc(-c2nnnn2Cc2c(Cl)cccc2Cl)cc1,0.6,nt
CCC#CCN(c1ccccc1)c1ccccc1,-2.7,18
Cn1nc(C(=O)N2CCN(S(=O)(=O)c3ccccc3)CC2)c2ccccc2c1=O,nt,-4
CC(=O)NN=C1CCC(=NNC(C)=O)CC1,0.8,5
CCN(CC)S(=O)(=O)c1cccc(-c2nnc(SCC#N)n2Cc2ccccc2)c1,nt,6
COc1ccccc1NC(=O)c1cc2ccccc2oc1=O,nt,-12
O=C(CCSc1ccccc1)Nc1ccc(S(=O)(=O)NCc2ccco2)cc1,nt,-7
Cc1cc(C)c(CSC(=N)N)c(C)c1CSC(=N)N,1.4&0.1,nt

(next part)
smiles,MgrA DNA FP,Sa helicase inh
O=C(CSCc1ccccc1)Nc1nnc(SCc2ccccc2)s1,nt,-15
CCNC(=S)N1CCC(C(=O)c2ccc(Cl)cc2)CC1,-0.3,-10
Brc1ccc2c(c1)C1CC(c3ccccc3)=NN1C(c1ccco1)O2 (stereo unspecified),nt,8
Cc1ccc(NC(=O)N(CCC(=O)O)Cc2ccccc2)cc1,-1.1,nt
CN(C)c1cc(-c2ccccc2)oc(=O)c1Cl,nt,12
COc1cc2c(c(OC)c1OC)C(=O)CC2,-3.2,nt

Screening results as filed in PubChem BioAssay.

An excerpt (hit frequency here may not be typical).
